ClpP mod: qHTS Assay for Activators of ClpP; purified B. subtilis ClpP, FRET peptide cleavage, 20 min; hit rate 1.9% among 340,000; Potency, µM (top dose mostly 57.5 µM), for the others: at the top dose activity change, negative = active; active = well fitted falling curve with a large enough effect; inconclusive = small, poorly fitted or top-dose-only effect; inactive = no such curve, though single readings can be large or run the other way; note: potency is the fitted concentration of half-maximal effect; the source files actives as falling curves though it sought activators and does not explain the sign; nearly all actives have a fitted effect of over 65% in size; many hits overshoot -100%
Target sequence (P80244 whole entry, looked up): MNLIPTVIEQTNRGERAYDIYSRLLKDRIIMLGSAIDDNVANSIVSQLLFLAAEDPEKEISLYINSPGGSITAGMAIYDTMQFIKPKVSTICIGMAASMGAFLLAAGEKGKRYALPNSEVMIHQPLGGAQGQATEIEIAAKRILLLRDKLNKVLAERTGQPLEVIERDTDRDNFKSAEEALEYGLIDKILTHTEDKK
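Buffer: 100 mM Tris/HCl pH8, 100 mM KCl, 0.05% low protease BSA, 2.5% glycerol, 0.01% Tween-20. ClpP 10 microg/mL final; 20 min RT; delta FRET normalized to ADEP and DMSO controls.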
Sfp inh: qHTS Assay for Inhibitors of Bacillus subtilis Sfp phosphopantetheinyl transferase (PPTase); 4'-phosphopantetheinyl transferase ffp (Bacillus subtilis), Q9F4F7; Biochemical Sfp PPTase activity, qHTS; Potency, µM, inactives show max response, negative = inhibition, most hits filed as inhibitors; hit rate 3.5% among 310,000; active = well fitted inhibition curve with a large enough effect; inconclusive = small, poorly fitted or top-dose-only effect, or another doubt; inactive = no such curve, though single readings can be large or run the other way;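 note: the enzyme is Sfp with the accession as filed and its product quenches rhodamine fluorescence; potency is the fitted concentration of half-maximal effect; 0% = enzyme reaction without inhibitor and -100% = no enzyme wells; top concentration of the series not given in the record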
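Step 1, compound plus 15 nM Sfp-PPTase, 15 min, room temperature. Step 2, add rhodamine-CoA (5 uM) and BHQ-2-YbbR (12.5 uM). Step 3, read 525/598 nm fluorescence at 0 and 30 min.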
TRPV1 potentiator: HTS Assay for Compounds that Act as Potentiators of the Vanilloid Receptor 1 | Transient receptor potential cation channel subfamily V member 1 (Homo sapiens), Q8NER1 | TRPV1-expressing cells, Fluo-8 calcium influx, capsaicin EC20 potentiation; host cell line not named in the record; control for the full effect not named in the record | potentiation, % at 8.33 µM | hit rate 0.02% among 320,000 | AID 540277, 2011; active means potentiation above 80%; inconclusive means 30% to 80%; inactive means below 30%; note: 0% is about no effect
Target sequence (Q8NER1 whole entry, looked up): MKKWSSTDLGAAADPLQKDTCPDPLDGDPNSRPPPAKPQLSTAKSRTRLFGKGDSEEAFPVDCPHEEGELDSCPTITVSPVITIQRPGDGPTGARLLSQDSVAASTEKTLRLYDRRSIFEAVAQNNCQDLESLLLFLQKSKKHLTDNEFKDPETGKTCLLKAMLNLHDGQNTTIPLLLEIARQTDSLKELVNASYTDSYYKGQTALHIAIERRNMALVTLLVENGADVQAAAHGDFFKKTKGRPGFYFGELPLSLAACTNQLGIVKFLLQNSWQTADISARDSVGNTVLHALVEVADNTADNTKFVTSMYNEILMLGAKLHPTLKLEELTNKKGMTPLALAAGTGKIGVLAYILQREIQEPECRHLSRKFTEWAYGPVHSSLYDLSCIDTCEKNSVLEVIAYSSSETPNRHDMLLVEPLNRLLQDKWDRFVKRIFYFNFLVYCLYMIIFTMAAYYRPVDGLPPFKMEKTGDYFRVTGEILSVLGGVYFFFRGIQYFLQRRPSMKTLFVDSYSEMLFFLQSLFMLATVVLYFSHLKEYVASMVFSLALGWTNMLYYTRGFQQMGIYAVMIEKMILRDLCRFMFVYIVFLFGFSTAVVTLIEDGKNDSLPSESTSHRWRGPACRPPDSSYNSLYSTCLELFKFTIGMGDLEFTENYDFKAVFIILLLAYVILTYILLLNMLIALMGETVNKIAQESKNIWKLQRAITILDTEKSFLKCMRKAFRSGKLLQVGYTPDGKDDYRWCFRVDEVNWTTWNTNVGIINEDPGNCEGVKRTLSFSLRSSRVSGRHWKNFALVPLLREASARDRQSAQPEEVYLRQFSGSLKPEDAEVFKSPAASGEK
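Fluo-8 calcium influx in TRPV1-expressing cells, kinetic read (ex 480/em 520 nm). Compound added and read 3 min for agonist activity, followed by capsaicin at EC20 final and 2 min further read for enhancement.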
Menin MLL FP FL: qHTS Assay for Inhibitors Targeting the Menin-MLL Interaction in MLL Related Leukemias: Competition With Fluorescein Labeled MLL-derived Peptide | Fluorescence polarization, fluorescein-MLL peptide displacement from menin | FP activity change, % at 61.4 µM | 290,000 tested, under 10 active | AID 1766, 2009; inconclusive = falling polarisation curve, or a change in total fluorescence; inactive = total fluorescence flat and polarisation flat or rising; no compound was filed as active; the % refers to the polarisation; negative = inhibition;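 note: % of control where 0% means no effect; inhibitors lower the polarisation; unlabelled MLL peptide was the positive control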
TRPML1 inh: qHTS for Inhibitors of the Human Mucolipin Transient Receptor Potential 1 (TRPML1) | Mucolipin-1 (Homo sapiens), Q9GZU1 | TRPML1-inducible cells, Ca2+ dye fluorescence, FDSS; active compounds read low; inhibition of EC80 agonist-evoked calcium signal | activity change, negative = inhibition, % (no concentration beside the values) | hit rate 0.02% among 390,000; in the data active means activity change below about -50%; inconclusive means about -30% to -50%; inactive means above about -30%;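 note: stimulus is agonist 54-4 at its EC80 concentration; % is set by controls: 0 for no effect and ±100 for the full control effect; compound concentration not given in the record; the text of the record puts the active cut at -80%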
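TRPML1-DL cells, Tet-induced overnight (~16 h, 37 °C) at 1,500 cells/well, were loaded with Ca8 no-wash dye plus quencher for 45-90 min at room temperature. Compounds were pinned during FDSS kinetic reading; agonist 54-4 at EC80 (4 uM final) then added.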
PINK1 expr mod: A Quantitative High throughput Screen to Identify Chemical Modulators of PINK1 Expression | PINK1 immunofluorescence, high-content cytometry, 24 h | Potency, µM (highest dose often 76.6 µM), inactives show top-dose activation (PINK1 increase), usual class: activators | hit rate 0.2% among 410,000; active = well fitted activation curve with a large enough effect; inconclusive = small, poorly fitted or top-dose-only effect; inactive = flat fitted curve, though single readings scatter; cell line not stated here;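 note: potency is the fitted concentration of half-maximal effect; % of control where 0% means no effect; nearly all actives have a fitted effect of over 65% in size; a mitochondrial uncoupler was the plate control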
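Readout is PINK1 immunofluorescence, quantified alongside mitochondrial, cell and nuclear markers by laser-scanning microplate cytometry. Cells from a stable line were exposed to compound titrations (5 concentrations) for 24 hours, with CCCP controls.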
TRPML1 agonist: qHTS for Agonists of the Human Mucolipin Transient Receptor Potential 1 (TRPML1). Mucolipin-1 (Homo sapiens), Q9GZU1. hit rate 0.12% among 410,000. AID 624414, 2012. activation, % (no concentration beside the values). TRPML1-expressing cells, Ca2+ dye fluorescence, FDSS; host cell line not named in the record; reference of the full effect not given here; in the data active = activation above about 50%; inconclusive = about 30% to 50%; inactive = below about 30%; note: 0% is about no effect; the text of the record puts the active cut at 80%
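TRPML1-DL cells, Tet-induced overnight (~16 h, 37 degrees C), loaded 45-90 min at room temperature with Ca8 no-wash calcium dye plus quencher. FDSS fluorescence: 10 s baseline, compound pin-transfer, 110 s agonist read, then EC80 54-4 (4uM final) and 110 s antagonist read.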
An asterisk follows results filed as active; ? = inconclusive; nt = not tested or not shown; & = joins results of further samples; [ ] = another dose, or the depositor's remark. This is a subset. The share of hits here may be higher or lower than overall.

Values run as follows: TRPML1 inh	Menin MLL FP FL	TRPV1 potentiator	PINK1 expr mod	ClpP mod	TRPML1 agonist	Sfp inh
COC(=O)C1=C(c2cc3ccccc3o2)C[C@@H]2CC[C@H]1N2C(=O)NCCNC(C)=O
 : 2	nt	nt	-0.6%	-1.7%	-0.5	nt
O=C(NCCCN1CC1)Nc1cccc2ccccc12
 : 21	nt	nt	-3.8%	25µM*	0.0	nt
c1ccc(CCc2ccc3n2Cc2cnnn2-c2ccccc2-3)cc1
 : -9	nt	nt	0.4%	3.9%	2.0	nt
COc1ccc2oc3c(c2c1)NC(=O)CN=C3c1ccccc1
 : -18	2.5	-2	5.9%	-0.1%	3.1	2%
c1csc(-c2nnc(Cc3cccc4ccccc34)o2)c1
 : -2	5.5	-7	?	-5.1%	-0.2	-3%
CN1C(=O)/C(=C\c2ccc(N3CCCCC3)o2)C(=O)NC1=S
 : 1	?	9	4.0%	-1.2%	10	-14%
c1cc2c(cc1[C@H]1OCC3C1CO[C@@H]3c1ccc3c(c1)OCO3)OCO2 (stereo partly drawn)
 : 19	nt	nt	0.2%	-1.7%	1.2	nt
C/C=C1/C[C@@H](C)[C@@](C)(O)C(=O)OCC2=CCN3CC[C@@H](OC1=O)[C@@H]23
 : 59	0.9	nt	nt	nt	0.2	10%
O=C1CCN(C(=O)C(Cl)Cl)N1
 : -12	-0.2	8	-0.1%	0.7%	0.9	-20%
S=P(N1CCCCCC1)(N1CC1)N1CC1
 : 7	nt	nt	-0.7%	-2.6%	0.3	nt
O=P(Nc1ccccc1Cl)(c1ccccc1)c1nc2c(s1)CCCC2 (stereo not drawn)
 : 18	1.8	26	nt	-0.2%	0.1	?
N#CC1c2ccccc2-n2nncc2CN1Cc1cc(Cl)cc(Cl)c1 (stereo not drawn)
 : -5	nt	nt	3.9%	-0.6%	1.9	nt
COc1cc(OC)cc(-n2nc(C(=O)N3CCC4(CC3)OCCO4)c3ccccc3c2=O)c1
 : 0	3.0	-15	1.3%	-1.0%	-0.5	15%
COc1ccc(CNCC(=O)N2CCC3(CC2)OCCO3)cc1
 : 1	-1.6	22	nt	-8.1%	0.2	-12%
CC(C)OP(=O)(OC(C)C)C(Nc1ccccc1)c1ccc2c(c1)OCO2 (stereo not drawn)
 : -9	2.9	-26	1.9%	?	-1.7	1%
CC1CN1P(=O)(Oc1ccccc1)N1CC1C (stereo not drawn)
 : -14	nt	nt	1.0%	-1.3%	0.3	nt
CC(C)n1c(=O)c(C=Nc2ccc(F)cc2)c(O)n(Cc2ccco2)c1=O
 : 19	6.3	-6	2.0%	nt	1.8	13%
Cn1c(O)c(C=NCCN2CCNCC2)c(=O)n(C)c1=O
 : -10	7.2	-9	0.5%	0.4%	0.9	3%
O=C(Cc1ccc(Br)cc1)N1CCN(Cc2ccccc2)CC1
 : -10	-0.1	6	0.1%	-0.2%	-0.5	-11%
O=C1NC(=S)NC(=O)C1c1ccccc1
 : 1	nt	nt	1.1%	nt	-0.5	nt
C[C@@H]1CCC2[C@@H](C)C(=O)O[C@@H]3OC4(C)CCC1[C@@]23OO4 (stereo partly drawn)
 : 8	nt	nt	-0.5%	-0.2%	0.4	nt
Nc1nc(SCCC(F)=C(F)F)n[nH]1
 : -4	0.9	5	0.4%	nt	0.5	12%
COC(=O)C1=C(c2c(C)noc2C)C[C@@H]2CC[C@H]1N2C(=O)N1CCc2cc(OC)c(OC)cc2C1
 : -8	nt	12	2.7%	-6.1%	0.5	nt
CCN(CC)C(=O)c1ccc(NC(=S)NC(=O)CCc2ccccc2)cc1
 : -18	2.8	-15	1.0%	-0.4%	2.6	-1%
COC(=O)C1=C(c2ccc(F)cc2OCc2ccccc2)C[C@@H]2CC[C@H]1N2C(=O)N1CCC(C)CC1
 : 32	nt	-13	?	-5.6%	0.7	nt
CCCCn1c(O)c(C(CC)=NCCN2CCOCC2)c(=O)[nH]c1=O
 : 11	0.8	9	3.6%[38.3 µM]	-4.2%	2.4	-25%
O=c1[nH]c(=O)n(Cc2ccco2)c(O)c1C=NCCN1CCNCC1
 : 1	2.7	1	0.9%	5.3%	-0.1	7%
COc1ccc(OC)c(N=Cc2c(O)n(Cc3ccccc3)c(=S)[nH]c2=O)c1
 : 12	?	nt	35µM*	nt	4.1	-15%
Cc1cccc(-n2c(C)nc3ccccc3c2=O)n1
 : 1	4.7	-8	4.8%	1.8%	-0.6	16%
ClCCN(CCCl)c1ccc(C=Cc2ccncn2)cc1
 : -10	nt	nt	2.5%	nt	13	nt
c1cnc(N2CCCC3(CCNCC3)C2)nc1
 : nt	-0.6	nt	-0.5%	nt	nt	2%
CC(C)c1ccc(N2C(=O)CC(=O)NC2=O)cc1
 : 63	14	-1	-0.4%	-2.0%	0.9	7%
O=C1NC(=S)NC(=O)C1Cc1ccccc1
 : -11	nt	nt	-3.7%	-5.0%	-0.1	nt
CCOC(=O)[C@]12Cc3c(cc(OC)c(OC)c3OC)[C@H]1N(C)C(=O)c1ccccc12
 : nt	nt	nt	-0.3%	0.8%	-0.2	nt
CCN(CC)P(=O)(c1nccn1C)N(CC)CC
 : 1	-8.2	12	0.1%	1.2%	1.2	6%
Cc1cccc(NC(=O)CSc2ccc(-c3ccco3)nn2)c1
 : 3	2.5	5	3.4%	?	0.5	?
O=C1NCN(c2ccccc2)C12CCN(C(c1cc3ccccc3o1)c1nnnn1C1CCCC1)CC2 (stereo not drawn)
 : nt	nt	nt	1.6%	-2.5%	-0.2	nt
COC(=O)C1=Nc2ccccc2/C1=C\c1c(O)n(-c2ccc(OC)cc2)c(=O)[nH]c1=O
 : 3	?	-19	?	13%	0.5	50µM*
O=C(O)CCC1NCC2CC1CN1CCCCC21 (stereo not drawn)
 : nt	-3.7	nt	-0.6%	nt	nt	-10%
c1cnc2c(c1)ncn2C1CCNCC1
 : -10	nt	nt	1.5%	-0.8%	-0.2	nt
CC(ON1CC1(C(F)(F)F)C(F)(F)F)(C(N)=O)C(N)=O (stereo not drawn)
 : 11	3.5	-6	2.8%	2.0%	0.3	20%
O=C(Nc1ccc(Cl)cc1C(=O)c1ccccc1)c1cc(Cl)cc(Cl)c1
 : 11	nt	nt	2.0%	0.8%	-0.8	nt
Clc1ccc(OCC#CCN2CCCCCC2)cc1
 : 40	3.1	-5	4.0%	-1.4%	1.4	-28%
C[C@H]1CCCC(=O)CCC/C=C/c2cc(O)cc(O)c2C(=O)O1
 : 12	-2.6	-9	-0.9%	1.3%	0.1	14%
COc1cccc(CCNCc2cccc(C(F)(F)F)c2)c1
 : 14	0.1	18	10%	nt	0.2	-7%
CCN(CCNc1ccc([N+](=O)[O-])c2cccnc12)S(=O)(=O)c1ccc(Cl)cc1
 : 72	-14	21	-2.4%	1.7%	0.4	-29%
CCc1cccc(CC)c1N(COC)C(=O)CCl
 : -5	-3.1	nt	0.4%&1.5%	-2.7%	0.8	6%
COc1ccc(/C=C/c2cc(O)cc(O)c2)cc1
 : nt	-1.6	nt	0.0%	nt	nt	21%
COC(=O)C1=C(c2ccc(OC(F)(F)F)cc2)C[C@@H]2CC[C@H]1N2C(=O)NCCO
 : 1	nt	1	1.2%	1.3%	-0.6	nt
O=C(Nc1cccc(Cl)c1)OC1CN2CCC1CC2 (stereo not drawn)
 : 19	-0.7	-2	7.1%	-0.1%	3.7	-2%

(more compounds)
Values run as follows: TRPML1 inh	Menin MLL FP FL	TRPV1 potentiator	PINK1 expr mod	ClpP mod	TRPML1 agonist	Sfp inh
COc1cccc(N2CCN(Cc3ccc(Cl)cc3)CC2)c1
 : -15	-6.4	-4	2.7%[38.3 µM]	0.7%	2.0	9%
O=C(Cn1ncc2c3ccccc3n(Cc3ccccc3F)c2c1=O)N1CCC2(CC1)OCCO2
 : 6	6.0	17	0.9%	?	-0.8	3%
O=P1(NC2CCCC2)COc2ccccc2OC1
 : 31	1.8	3	1.0%	-0.3%	0.4	9%
CC1(C)CN=C(NCc2ccccc2Cl)S1
 : -13	2.9	-23	-1.0%[38.3 µM]	-1.4%	0.2	8%
CCN1C(=O)NC(=O)C2(CCCC2)C1=O
 : 3	nt	nt	-2.2%	-2.4%	0.3	nt
Cc1cc(OCC(=O)N2CCC(C(=O)O)CC2)c2c3c(c(=O)oc2c1)CCC3
 : nt	-0.1	5	0.7%	5.0%	nt	14%
CCC1(C)Cc2ccccc2-c2c1c(=O)n(Cc1ccccc1)c1nnnn21 (stereo not drawn)
 : -8	-0.7	6	5.1%	32µM*	-0.2	15%
O=C(OC1CC2CCC(N2)C1C(=O)O)c1ccccc1 (stereo not drawn)
 : -5	nt	nt	0.3%	-1.9%	-0.8	nt
O=C(CCC(=O)N1C[C@H]2C[C@@H](C1)c1cccc(=O)n1C2)NCc1ccc(F)cc1
 : 7	nt	1	0.9%	-4.3%	-0.7	nt
CN1CCC(OC(=O)C2c3ccccc3Oc3ccccc32)CC1
 : 8	0.6	-5	-2.5%	-1.5%	-0.3	6%
C1=NCCc2c1[nH]c1ccccc21
 : -8	nt	nt	6.4%	nt	0.7	nt

Screening results: PubChem, National Center for Advancing Translational Sciences (NCATS)
